Screening results (PubChem)
Polio RdRp inh = inhibitors of poliovirus RNA polymerase binding and polymerization; AID 588519; % elongation, % (compound at 16.7 µg/mL); P03300; hit rate 0.66% among 150,000; poliovirus polymerase elongation, fluorescence polarization; stronger effect = lower value; in the data active = % elongation below about 90%; note: some results filed as inactive read as strong as hits
Target sequence (P03300 1749-2209 limits assumed): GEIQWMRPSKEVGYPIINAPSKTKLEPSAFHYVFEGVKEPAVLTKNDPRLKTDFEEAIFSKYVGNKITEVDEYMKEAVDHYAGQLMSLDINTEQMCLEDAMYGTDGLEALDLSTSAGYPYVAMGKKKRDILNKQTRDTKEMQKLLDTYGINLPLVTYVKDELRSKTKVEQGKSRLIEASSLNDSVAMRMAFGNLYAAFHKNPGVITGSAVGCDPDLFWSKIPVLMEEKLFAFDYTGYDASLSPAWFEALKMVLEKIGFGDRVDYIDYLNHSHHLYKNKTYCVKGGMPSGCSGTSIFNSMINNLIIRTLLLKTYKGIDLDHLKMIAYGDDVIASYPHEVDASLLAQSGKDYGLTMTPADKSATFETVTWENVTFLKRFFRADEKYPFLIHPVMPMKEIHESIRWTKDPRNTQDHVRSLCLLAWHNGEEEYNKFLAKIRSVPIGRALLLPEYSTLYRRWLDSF
Polio RdRp inh intensity = further read-out of Polio RdRp inh, marked with its call; % elongation; measured here: total intensity read-out; formula for this scale not given here;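 total fluorescence in place of polarization; lower means less elongation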
* marks the source's active call; other numbers are inactive results.

SMILES	Polio RdRp inh	Polio RdRp inh intensity
Cc1ccc(F)cc1NC(=O)CCc1c(C)nn(-c2ccc(N3CCCC3)nn2)c1C	107	111
COc1cccc(C(=O)Nc2cccc(OCc3cc(=O)n4c5c(sc4n3)CCCC5)c2)c1	100	103
CCc1ccc(NC(=O)CSc2c(C)cnc3c2c(=O)n(C)c(=O)n3C)cc1	109	113
CC(=O)Nc1ccc(NC(=O)c2c(-c3ccccc3)noc2C)cc1	100	102
Cc1ccc(C)c(N2CCN(C3=C(c4ccccc4)C(=O)c4ccccc43)CC2)c1	107	112
CC(Oc1ccccc1F)C(=O)N1CCC(c2nc3ccccc3o2)CC1 (configuration not stated)	97	104
Cc1ccc(S(=O)(=O)NCCc2nnc3ccc(SCC(=O)Nc4ccc(F)cc4F)nn23)cc1	108	111
CCOc1ccccc1C(=O)Nc1cccc2ccc(C)nc12	107	111
COc1cccc(NC(=O)C2CCCN(c3ncnc4onc(C)c34)C2)c1 (configuration not stated)	108	113
O=C(NCc1ccccc1Br)c1ccc(-n2cnc3cccnc32)cc1	107	101
CCOC(=O)c1ccccc1NC(=O)CSc1nnc(CC)n2c1cc1occc12	109	104
CCN(CC)CCCNc1oc(/C=C/c2ccc(OC)c(OC)c2)nc1C#N	104	108
COc1ccccc1-c1nc(S(=O)(=O)c2ccc(Cl)cc2)c(N2CCCCCC2)o1	104	104
COc1cccc(NC(=O)CN2C(=O)c3cccc4cccc2c34)c1	108	110
CCOC(=O)c1c(N)n(-c2ccc(CC)cc2)c2nc3ccccc3nc12	108	110
Cc1ccc(NC(=O)Nc2ccc3c(c2)N(C)C(=O)c2ccccc2S3)c(C)c1	110	107
Cc1ccccc1NC(=O)c1c(NC(=O)c2ccco2)sc2c1CCC(C(C)(C)C)C2 (configuration not stated)	102	104
CC1CCc2c(sc3nnn(Cc4ccccc4Cl)c(=O)c23)C1 (configuration not stated)	105	108
COc1ccc(S(=O)(=O)Nc2cc(-c3cn4cccc(C)c4n3)ccc2C)cc1C	104	114
Cc1ccc(CCNC(=O)c2cc(Nc3ccc(C)c(C)c3)nc3ccccc23)cc1	110	108
CN(Cc1ccccc1)C(=O)c1ccc2c(c1)N(Cc1ccccc1F)C(=O)c1ccccc1S2(=O)=O	103	105
Cc1ccccc1CN1C(=O)c2ccccc2S(=O)c2ccc(C(=O)NCc3ccc(Cl)cc3)cc21 (configuration not stated)	114	112
COc1ccc2c(CNCC(C)c3ccccc3)c(C(=O)O)n(Cc3ccc(F)cc3Cl)c2c1 (configuration not stated)	105	100
Cc1ccc(OCC(=O)Nc2ccc(Cl)cc2C(=O)c2ccccc2)cc1C	104	113
Cn1c(SCC(=O)N2CCCc3ccccc32)ncc(C(=O)Nc2ccc(F)cc2)c1=O	111	113
Cc1ccccc1NC(=O)C1CCN(S(=O)(=O)c2ccccc2)CC1	103	107
CCOc1ccc(S(=O)(=O)Nc2cccc(OC)c2)c2cccnc12	98	101
Cc1cccc(N2CCN(C(=O)C3CCN(C(=O)c4cc5sccc5n4C)CC3)CC2C)c1 (configuration not stated)	109	111
CCOc1ccc(NC(=O)N2CCN(C(=O)c3nsc4ccccc34)CC2)cc1	113	115
COc1ccc(Cl)cc1NC(=O)Cn1ccn(Cc2ccc(C)cc2)c(=O)c1=O	103	106

Four entries from above, sorted by number of heavy atoms, rising:
SMILES	Polio RdRp inh	Polio RdRp inh intensity
COc1cccc(NC(=O)CN2C(=O)c3cccc4cccc2c34)c1	108	110
CCc1ccc(NC(=O)CSc2c(C)cnc3c2c(=O)n(C)c(=O)n3C)cc1	109	113
Cc1ccc(C)c(N2CCN(C3=C(c4ccccc4)C(=O)c4ccccc43)CC2)c1	107	112
Cc1ccc(F)cc1NC(=O)CCc1c(C)nn(-c2ccc(N3CCCC3)nn2)c1C	107	111

The list goes on:
SMILES	Polio RdRp inh	Polio RdRp inh intensity
CCOc1ccc(-c2csc(-c3c(N)c(C(=O)c4ccc5c(c4)OCO5)n4ccccc34)n2)cc1	113	106
CCCCC(=O)Nc1ccc2nc(SCC(=O)N3CCOCC3)sc2c1	112	107
COc1ccc(CCCc2nnc(SCC(=O)Nc3cc(C)ccc3C)o2)cc1	106	110
O=C(NCc1ccccc1Cl)c1nnc(Cc2ccc(Cl)cc2)o1	106	111
Cc1ccc(NC(=O)CN2C(=O)CCSc3ccc(S(=O)(=O)N4CCCC4)cc32)cc1	107	113
COc1ccc(Cn2c(=O)[nH]c3cc(C(=O)N4CCN(c5cc(C)ccc5C)CC4)ccc3c2=O)cc1	107	109
Cc1ccccc1OCCn1c(-c2ccc(Cl)cc2)nc2ccccc2c1=O	106	110
COc1ccc(C(=O)NCc2ccc3c(c2)CCN3C(=O)c2ccc(F)cc2)cc1	106	99
COc1ccc(CCNC(=O)C(C)n2c(=O)cc(C(F)(F)F)c3c(C)nn(C)c32)cc1OC (configuration not stated)	106	107
Cc1oc(-c2ccc(C(=O)NCCC(C)C)cc2)nc1CN1CCc2ccccc21	105	108
CCCNC(=O)C1CCC(Cn2c(=O)c3sccc3n(CC(=O)N3CCCC(C)C3)c2=O)CC1 (configuration not stated)	104	110
Cc1ccc(NC(=O)c2cc(S(=O)(=O)N3CCCCC3)c[nH]2)cc1F	109	104
COc1ccccc1CCNC(=O)Cc1c(C)c2cc3c(C(C)(C)C)coc3c(C)c2oc1=O	107	97
CCc1ccc2oc(C(=O)Nc3sc4c(c3C(=O)NC)CCCC4)cc(=O)c2c1	108	108
COc1cccc(CNC(=O)C(=O)NCC(c2ccco2)S(=O)(=O)c2cccs2)c1 (configuration not stated)	114	116
CCC(=O)N1CCc2cc(Br)cc(S(=O)(=O)N3CCCC(C(=O)Nc4cccc(Cl)c4C)C3)c21 (configuration not stated)	107	107
CCCNC(=O)CCNS(=O)(=O)c1ccc2c(c1)c(=O)n(C)c(=O)n2C	109	112
Cc1ccc(C(C)C)c(OCc2ccc(C(=O)Nc3ccc(S(N)(=O)=O)cc3C)o2)c1	103	103
COc1cccc(-c2[nH]c3c(c2-c2c(-n4cccc4)n(C)c(=O)[nH]c2=O)c(=O)[nH]c(=O)n3C)c1	108	111
CCN(CCCNC(=O)c1cc2cc3ccc(OC)cc3nc2s1)c1cccc(C)c1	116	115
Cc1ccc(-c2nc(CN3C(=O)CN=C(c4ccccc4)c4ccccc43)c(C)o2)cc1	113	113
CCc1cccc(C)c1NC(=O)c1nc2ccccc2nc1N1CCCCC1	107	105
Clc1ccc(-c2nnn3c2nc(NCc2ccc4c(c2)OCO4)c2ccccc23)cc1	107	110
CCCn1c2ccccc2c2cnn(CC(=O)NCC3CCN(Cc4ccc(C)cc4)CC3)c(=O)c21	103	104
CCSc1oc(-c2ccc(F)cc2)nc1S(=O)(=O)c1ccc(C)cc1	101	106
CCc1cccc(NC(=O)CCC(=O)N2CCSc3ccccc32)c1	110	105
Cc1cc(C)c(NC(=O)c2cc3sc(Cl)cc3n2C)c(C)c1	104	106
O=C(CN1C(=O)c2cccc3cccc1c23)Nc1cccc(F)c1	102	108
O=C(Nc1ccc(Cl)c(Cl)c1)N1CCC(c2ccccc2)C1 (configuration not stated)	103	101
O=C(NCc1ccccc1)C1CCN(S(=O)(=O)c2ccc3c(c2)CCCN3C(=O)C2CCC2)CC1	107	111
COc1ccc(NC(=O)CC2C(=O)N(c3ccccc3)C(=O)N2Cc2cccnc2)cc1 (configuration not stated)	114	118
CC(=O)c1ccc(NC(=O)CSc2nc(-c3cccc(F)c3)nc3c2c(=O)n(C)c(=O)n3C)cc1	99	107
COc1cccc(CNc2ncnc3onc(-c4ccc(F)cc4)c23)c1	101	106
Cc1nc2nc(SCC(=O)NCCc3ccc(Cl)cc3)nn2c(C)c1Cc1c(F)cccc1Cl	108	106
COc1ccccc1C(=O)Nc1ccc(C(=O)OCc2cc(=O)n3c4c(sc3n2)CCCC4)cc1	106	109
Cc1ccc(C)n1-c1nnc(N2CCCC(C(=O)NCc3ccc(F)cc3)C2)s1 (configuration not stated)	104	105
CCc1ccc(NC(=O)Cn2c(=O)oc3cc(S(=O)(=O)NCc4ccccc4)ccc32)cc1	104	104
Cc1ccc(C)c(S(=O)(=O)NCC(c2ccc(N(C)C)cc2)N2CCOCC2)c1 (configuration not stated)	108	115
CCc1nn(CC(=O)N2CCN(c3ccc(OC)cc3)CC2)c(=O)c2cc3sccc3n12	102	105
O=C(NCc1ccccc1Cl)c1cc2c(s1)-c1ccccc1SC2	107	104
COc1ccc(-c2c(C)c3ccc(O)c(CN4CCN(CCO)CC4)c3oc2=O)cc1OC	108	107
CC(C)CCNC(=O)C1CCN(C(=O)c2cc3sccc3n2Cc2ccc(Cl)cc2)CC1	112	108
Clc1ccccc1-c1nnc(-c2ccccc2CNc2ccc(Br)cc2)o1	109	110
COc1ccc2nc(N(Cc3cccnc3)C(=O)C3COc4ccccc4O3)sc2c1 (configuration not stated)	112	107
COc1ccc2cc(S(=O)(=O)c3ccccc3F)c(=O)oc2c1	105	107

A different layout for some results above:
Cc1ccc(NC(=O)c2cc(S(=O)(=O)N3CCCCC3)c[nH]2)cc1F
  Polio RdRp inh: 109	Polio RdRp inh intensity: 104
COc1cccc(-c2[nH]c3c(c2-c2c(-n4cccc4)n(C)c(=O)[nH]c2=O)c(=O)[nH]c(=O)n3C)c1
  Polio RdRp inh: 108	Polio RdRp inh intensity: 111
CCC(=O)N1CCc2cc(Br)cc(S(=O)(=O)N3CCCC(C(=O)Nc4cccc(Cl)c4C)C3)c21 (configuration not stated)
  Polio RdRp inh: 107	Polio RdRp inh intensity: 107
COc1cccc(C(=O)Nc2cccc(OCc3cc(=O)n4c5c(sc4n3)CCCC5)c2)c1
  Polio RdRp inh: 100	Polio RdRp inh intensity: 103

Structures listed so far that contain an NH in an aromatic ring:
SMILES	Polio RdRp inh	Polio RdRp inh intensity
COc1ccc(Cn2c(=O)[nH]c3cc(C(=O)N4CCN(c5cc(C)ccc5C)CC4)ccc3c2=O)cc1	107	109
Cc1ccc(NC(=O)c2cc(S(=O)(=O)N3CCCCC3)c[nH]2)cc1F	109	104
COc1cccc(-c2[nH]c3c(c2-c2c(-n4cccc4)n(C)c(=O)[nH]c2=O)c(=O)[nH]c(=O)n3C)c1	108	111

The list continues:
SMILES	Polio RdRp inh	Polio RdRp inh intensity
CCN1CCN(c2cc(C)c3cc(NC(=O)c4cc(Br)ccc4Cl)ccc3n2)CC1	101	105
Cc1cc(=O)n2[nH]c(NCc3ccc(F)cc3)nc2n1	115	107
CCOC(=O)c1c(C)[nH]c(CCC(=O)Nc2ccccc2C(=O)OC)c1C	111	108
O=C(CSc1nc2ccccc2nc1Cc1ccccc1)Nc1ccc2c(c1)OCO2	105	111
Cc1ccc(Nc2c(-c3ccccc3O)nc3ccc(Br)cn23)cc1	101	103
COc1ccc(-c2cc(C(=O)N3CCN(c4ccc(F)cc4)CC3)no2)cc1OC	106	110
Cc1ccc(Cc2nc3ccccc3nc2SCC(=O)N2CCc3ccccc32)cc1	102	101
Cc1ccc(C(=O)N2CC(=O)Nc3ccc(Br)cc3C2c2ccc(F)cc2)cc1C (configuration not stated)	109	107
Cc1ccc(CNC(=O)C2CCN(c3nn4cc(-c5ccc(F)cc5)nc4s3)CC2)cc1	106	103
O=C(Nc1ccc(NC(=O)c2cccs2)cc1)c1ccc(Cl)cc1	111	113
Cc1ccc(NC(=O)c2oc3ccc(S(=O)(=O)N(C)C4CCCCC4)cc3c2C)c(C)c1	113	112
Cn1c(=O)c2c(nc(N3CCOCC3)n2Cc2ccc(Br)cc2)n(C)c1=O	112	111
Cc1ccc([N+](=O)[O-])cc1S(=O)(=O)N1CCn2cccc2C1c1ccc(F)c(F)c1 (configuration not stated)	104	105
Cc1ccc(NC(=O)CSc2nc(=O)n(CCN3CCOCC3)c3c2CCC3)c(C)c1	103	109
CCOc1ccc(CCNC(=O)C2CCCN(S(=O)(=O)N(C)c3ccc(F)cc3)C2)cc1 (configuration not stated)	105	109
COc1cccc(C2=NS(=O)(=O)N(C)C(C(=O)Nc3ccccc3SC)=C2)c1	108	101
COc1ccccc1-c1cc2nc(C)c(CCC(=O)NCCc3ccc(SC)cc3)c(C)n2n1	109	106
Cc1oc(-c2ccccc2F)nc1Cn1c(SCc2cccc(Cl)c2)nc2ccncc21	102	104
Cc1ccc(-n2c(SCC(=O)N3CCC(C)CC3)nc3c([nH]c4ccccc43)c2=O)cc1	109	112
COc1ccc(Cl)cc1NC(=O)c1nc(S(C)(=O)=O)ncc1N(Cc1ccc(C)cc1)Cc1ccco1	109	89
COc1cccc(CNC(=O)C2CCC(CNS(=O)(=O)c3cccs3)CC2)c1 (configuration not stated)	115	116
COc1ccc(-c2onc(C)c2C)cc1S(=O)(=O)N1CCc2ccccc21	102	98
Cc1ccc(CN2CCC(CNC(=O)Nc3cccc(C)c3C)C2)cc1 (configuration not stated)	106	99
Cc1ccc(-c2nc(CSc3nnc(C)n4c3cc3occc34)c(C)o2)cc1	107	108
CN(C)CCNC(=O)C1CCN(c2nc3ccccc3[nH]2)CC1	108	116
COc1cc(NC(=O)c2cc3cc4ccc(C)cc4nc3o2)cc(OC)c1OC	110	107
Cc1cccc(-n2c(/C=C\c3cccc(Br)c3)nc3ccccc3c2=O)c1	106	98
CCCN(C(=O)CCc1nc(-c2ccccc2F)no1)c1ccc(CC)cc1	101	103
COc1ccc(NC(=O)Cn2cnc3sc(C)c(S(=O)(=O)N4CCN(C)CC4)c3c2=O)cc1Cl	106	98
O=C(NCCCN1CCCCCC1)c1ccc2c(c1)sc1nc(-c3ccccc3)cn12	97	91
c1ccc(N2CCN(c3ncnc4c3nc3n4CCCC3)CC2)cc1	106	107
COc1ccc(NC(=O)Cn2nnc(C(=O)Nc3ccc(C)c(F)c3)c2N)cc1Cl	109	92
COc1cccc(NC(=O)C(Cc2ccccc2)N2Cc3ccccc3C2=O)c1 (configuration not stated)	105	105
COc1cccc(-c2nc3c(C#N)c[nH]n3c2NC2CCCC2)c1OC	105	113
Cc1cccc(CN2CCN(CC(=O)NCc3ccc(Cl)cc3)C2=O)c1	108	108
Cc1ccc(NC(=O)N2CCc3cc(S(=O)(=O)N4CCC(C)CC4)ccc32)cc1C	108	110
CCC1CN(C(=O)Nc2ccc(C(=O)O)cc2)c2cc(Cl)ccc2O1 (configuration not stated)	106	106
Cc1ccc2c(=O)cc(C(=O)Nc3nnc(CC(C)C)s3)oc2c1C	111	116

A portion of the library, so the mix of outcomes need not match the whole.
